Source: PubChem BioAssay (National Center for Advancing Translational Sciences (NCATS))
VDR inh: Inhibitors of the vitamin D receptor (VDR): qHTS; Vitamin D3 receptor (Homo sapiens), P11473; VDR-SRC2-3 peptide fluorescence polarization, 2 h; Potency, µM, inactives show max response, negative = inhibition, hits mostly inhibitors; actives 0.93% (n = 400,000); AID 504847, 2011; active = well fitted inhibition curve with a large enough effect; inconclusive = small, poorly fitted or top-dose-only effect, or another doubt; inactive = no such curve, though single readings can be large or run the other way; note: series mostly up to about 120 µM
Target sequence (P11473 whole entry, looked up): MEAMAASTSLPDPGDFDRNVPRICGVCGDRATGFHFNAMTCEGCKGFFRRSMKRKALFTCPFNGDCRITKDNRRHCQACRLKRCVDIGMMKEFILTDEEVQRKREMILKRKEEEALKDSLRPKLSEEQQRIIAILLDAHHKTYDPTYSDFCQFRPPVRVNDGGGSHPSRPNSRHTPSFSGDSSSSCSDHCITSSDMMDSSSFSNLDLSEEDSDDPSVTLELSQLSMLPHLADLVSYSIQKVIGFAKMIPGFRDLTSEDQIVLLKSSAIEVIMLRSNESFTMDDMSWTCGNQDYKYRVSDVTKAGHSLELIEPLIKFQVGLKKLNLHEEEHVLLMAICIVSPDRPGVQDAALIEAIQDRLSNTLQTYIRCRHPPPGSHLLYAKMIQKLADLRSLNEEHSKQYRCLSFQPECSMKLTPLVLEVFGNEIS
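Fluorescence polarization assay measuring small-molecule disruption of VDR binding to the coregulator peptide SRC2-3. Compounds were pin-transferred (23 nl) into the reagent mix and incubated 2 h at room temperature before reading.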
Active calls of the source: *; [ ] = dose if it differs, or a comment. % is set by controls: 0 for no effect and ±100 for the full control effect; potency is the fitted concentration of half-maximal effect.

Results for CCCCn1c(N)c(N(CCC(C)C)C(=O)COC(=O)c2cccnc2SC)c(=O)[nH]c1=O ?
VDR inh: -9%

How did CCn1nc(C(C)C)cc1C(=O)N1CCCC(CO)(Cc2ccc(F)cc2F)C1 (stereo not given) do in these assays?
VDR inh: 4%

Results for COc1ccc(-c2nnc(SCC(=O)c3[nH]c(C)c(C(C)=O)c3C)o2)cc1 ?
VDR inh: 2%

Results for CC(c1ccccc1)C1CC(=O)N(C2CCCCC2)C1=O (stereo not given) ?
VDR inh: -8%

What do the screens show for `Cc1cccnc1NC(=O)CNC(=O)C12CC3CC(CC(Cl)(C3)C1)C2`?
VDR inh: -16%

What do the screens show for `COc1ccc(OC)c(NC(=O)C2CCC(CNc3c(N4CCC(C)CC4)c(=O)c3=O)CC2)c1` (stereo not given)?
VDR inh: 4%

Results for Cc1cc(C)c(C(=O)COC(=O)CCn2c(C)csc2=O)cc1C ?
VDR inh: 19%

What do the screens show for `CCCCOCCCNC(=O)N[C@H](C(=O)OC)C(C)C`?
VDR inh: 0%

Results for Cn1c(=O)c2c(nc(SC3C(=O)CC(C)(C)CC3=O)n2C)n(C)c1=O ?
VDR inh: 9%

What do the screens show for `COCCn1nnnc1C(c1ccc(OC)cc1OC)N1CCN(c2ccccc2F)CC1` (stereo not given)?
VDR inh: 1%

How did COc1ccc(NC(=O)C(Sc2nnc3ccccn23)c2ccccc2)cc1Cl (stereo not given) do in these assays?
VDR inh: -22%

How did O=C(c1cccs1)c1cn(CCOc2ccccc2F)c2ccccc12 do in these assays?
VDR inh: 8%

Results for O=S(=O)(Nc1cc(Cl)ccc1-n1cncn1)c1cc(Br)ccc1Br ?
VDR inh: -17%

What do the screens show for `CCOc1cc(NC(=O)C2CC2)c(OCC)cc1NC(=O)c1ccccn1`?
VDR inh: 9%

How did NS(=O)(=O)c1cccc(NC(=O)COC(=O)CSCc2ccccc2)c1 do in these assays?
VDR inh: -10%

How did Cc1ccccc1S(=O)(=O)Nc1nc2ccccc2nc1Cl do in these assays?
VDR inh: -5%

How did COC(=O)c1c(C)[nH]c(C)c1-c1ccccc1 do in these assays?
VDR inh: 10%

What do the screens show for `S=C(NCc1cccs1)Nc1cc(Cl)cc(Cl)c1`?
VDR inh: 13%

Results for O=C(c1ccc(OC2CCN(CCc3ccccc3)CC2)cc1)N1CCC[C@H]1CO ?
VDR inh: -7%

Results for Cc1c(C(=O)NC(C)CN2CCCCC2)oc2ccccc12 (stereo not given) ?
VDR inh: 1%

Results for Cc1cc(=O)oc2cc(OCC(=O)Nc3nnc(C(C)C)s3)ccc12 ?
VDR inh: 11%

How did CC(=O)c1ccc(S(=O)(=O)NC2CC(=O)N(c3ccc(C)c(C)c3)C2)cc1 (stereo not given) do in these assays?
VDR inh: 6%

How did C=CCOc1ccc(-c2nc3c(c(=O)[nH]c(=O)n3Cc3ccccc3)n2CCCOC)cc1 do in these assays?
VDR inh: 0%

What do the screens show for `CCOc1ccc2[nH]c(C)cc(=O)c2c1`?
VDR inh: 4%

Results for O=C(COC(=O)c1ccc(Br)o1)NCc1ccccc1Cl ?
VDR inh: 10%

What do the screens show for `COC(=O)CC1C(C)(C)C(OC(C)=O)C2[C@H](OC(C)=O)[C@]34O[C@]2(O)[C@]1(C)C3CC[C@]1(C)C4=CC(=O)OC1c1ccoc1` (stereo not given in full)?
VDR inh: inconclusive

How did CCOC(=O)/C(=C\c1cn(C)c2ccccc12)[N+](=O)[O-] do in these assays?
VDR inh: 50µM*

What do the screens show for `COc1ccc(-c2cn(Cc3ccc([N+](=O)[O-])cc3)nn2)cc1`?
VDR inh: -9%

How did C=CCN1C2=NCCCN2c2ccccc21 do in these assays?
VDR inh: 3%

How did CCOC(=O)c1[nH]c2cc(OC)c(OC)cc2c1NC(=O)c1nonc1C do in these assays?
VDR inh: -19%

What do the screens show for `O=S(=O)(Nc1ccc(Br)cc1F)c1ccc2nc(-c3ccccc3)[nH]c2c1`?
VDR inh: 9%

What do the screens show for `CCCNC(=O)COC(=O)c1cc(-c2ccc(OC)cc2)nc2ccccc12`?
VDR inh: -1%

What do the screens show for `CC(C)n1c(=S)[nH]c2c1c(=O)[nH]c(=O)n2C`?
VDR inh: inconclusive

What do the screens show for `CC1CCN(C(=O)c2cc(Cl)ccc2NC(=O)c2ccco2)CC1`?
VDR inh: -9%

How did COc1cccc(NC(=O)CC(C)=O)c1 do in these assays?
VDR inh: -5%

What do the screens show for `COC(=O)CCN1CCC(c2cc(-c3cccc(C(F)(F)F)c3)n[nH]2)CC1`?
VDR inh: 11%

Results for CN(C(=O)CSc1nc2cc(Cl)ccc2c(=O)n1Cc1ccco1)C1CCS(=O)(=O)C1 (stereo not given) ?
VDR inh: 1%

Results for Cc1ccccc1-n1nc(CO)c(C(=O)NCc2cccs2)n1 ?
VDR inh: -12%

What do the screens show for `Cc1cc(C)cc(N(CC(=O)N2CCn3c2nc2ccccc23)S(=O)(=O)c2c(C)noc2C)c1`?
VDR inh: -7%

How did CCc1nnc(NC(=O)Cn2nc(-c3ccc(OC)c(OC)c3)ccc2=O)s1 do in these assays?
VDR inh: 3%

What do the screens show for `Cc1cc(NC(=S)Nc2ccc(C)c(Cl)c2)n[nH]1`?
VDR inh: inconclusive

What do the screens show for `CC(=O)COC(=O)c1cc(-c2ccc(C)cc2)nc2ccccc12`?
VDR inh: -3%

What do the screens show for `CCOc1ccc2ncc3c(-c4cccc(OC)c4)nn(-c4ccccc4)c3c2c1`?
VDR inh: 4%

Results for CCc1cc2c(SCC#N)ncnc2s1 ?
VDR inh: 5%

How did Cc1ccc(-n2nc3c(c2NC(=O)CCC2CCCCC2)CS(=O)C3)cc1 (stereo not given) do in these assays?
VDR inh: -16%

Results for Fc1ccccc1Nc1n[nH]c(=S)s1 ?
VDR inh: -18%

What do the screens show for `CSc1ccc(Cl)c(C(=O)OCC(=O)N2CCN(c3ccccc3)CC2)c1`?
VDR inh: 18%

How did Cc1ccn2c(NC(=O)c3ccco3)c(-c3ccccc3)nc2c1 do in these assays?
VDR inh: 2%

What do the screens show for `Cc1cc(N/N=C/c2ccc(N(C)C)cc2)nc(NCc2ccccc2)n1`?
VDR inh: -28%

What do the screens show for `CN(C)c1nnnn1-c1cccc(Oc2ncc(C(F)(F)F)cc2Cl)c1`?
VDR inh: -7%

What do the screens show for `CCc1ccc(S(=O)(=O)NCc2csc(C)n2)cc1`?
VDR inh: 21%

Results for CC(=O)c1c(C)[nH]c(C(=O)NCc2cccs2)c1C ?
VDR inh: 7%

Results for COc1cc(C(=O)OCC(=O)Nc2c(F)c(F)c(F)c(F)c2F)cc(OC)c1OC ?
VDR inh: 10%

How did O=C(NC1CCCC1)C(NS(=O)(=O)c1cccc2nsnc12)c1ccccc1 (stereo not given) do in these assays?
VDR inh: -1%

How did COc1cccc(CNC(=O)CN2C(=O)NC(c3ccccc3)(c3ccccc3)C2=O)c1 do in these assays?
VDR inh: -15%

Results for Cc1onc(-c2c(F)cccc2Cl)c1C(=O)NCCc1ccc(S(N)(=O)=O)cc1 ?
VDR inh: -4%

Results for O=C(Nc1ccccc1N1CCCCC1)c1ccc([N+](=O)[O-])o1 ?
VDR inh: -1%

Results for CCOC(=O)c1sc(=NC(=O)/C=C/c2cccs2)n(C)c1C ?
VDR inh: -2%

Results for FC(F)(F)c1ccc(Cl)c(NC2=NCCCCC2)c1 ?
VDR inh: 16%

How did CCCOc1ccc(C(=O)NNC(=S)NC(=O)c2cccs2)cc1 do in these assays?
VDR inh: -21%

Sorted by molar mass (descending): part of the list above
Results for Cc1onc(-c2c(F)cccc2Cl)c1C(=O)NCCc1ccc(S(N)(=O)=O)cc1 ?
VDR inh: -4%

How did COc1cccc(CNC(=O)CN2C(=O)NC(c3ccccc3)(c3ccccc3)C2=O)c1 do in these assays?
VDR inh: -15%

How did O=C(NC1CCCC1)C(NS(=O)(=O)c1cccc2nsnc12)c1ccccc1 (stereo not given) do in these assays?
VDR inh: -1%

What do the screens show for `CCOc1ccc2ncc3c(-c4cccc(OC)c4)nn(-c4ccccc4)c3c2c1`?
VDR inh: 4%

How did Cc1ccc(-n2nc3c(c2NC(=O)CCC2CCCCC2)CS(=O)C3)cc1 (stereo not given) do in these assays?
VDR inh: -16%

What do the screens show for `CN(C)c1nnnn1-c1cccc(Oc2ncc(C(F)(F)F)cc2Cl)c1`?
VDR inh: -7%

How did CCCOc1ccc(C(=O)NNC(=S)NC(=O)c2cccs2)cc1 do in these assays?
VDR inh: -21%

What do the screens show for `Cc1cc(N/N=C/c2ccc(N(C)C)cc2)nc(NCc2ccccc2)n1`?
VDR inh: -28%

Results for CCOC(=O)c1sc(=NC(=O)/C=C/c2cccs2)n(C)c1C ?
VDR inh: -2%

What do the screens show for `CC(=O)COC(=O)c1cc(-c2ccc(C)cc2)nc2ccccc12`?
VDR inh: -3%

How did Cc1ccn2c(NC(=O)c3ccco3)c(-c3ccccc3)nc2c1 do in these assays?
VDR inh: 2%

Results for O=C(Nc1ccccc1N1CCCCC1)c1ccc([N+](=O)[O-])o1 ?
VDR inh: -1%

What do the screens show for `CCc1ccc(S(=O)(=O)NCc2csc(C)n2)cc1`?
VDR inh: 21%

Results for FC(F)(F)c1ccc(Cl)c(NC2=NCCCCC2)c1 ?
VDR inh: 16%

What do the screens show for `Cc1cc(NC(=S)Nc2ccc(C)c(Cl)c2)n[nH]1`?
VDR inh: inconclusive

Results for CC(=O)c1c(C)[nH]c(C(=O)NCc2cccs2)c1C ?
VDR inh: 7%

Results for Fc1ccccc1Nc1n[nH]c(=S)s1 ?
VDR inh: -18%

The list goes on.
How did c1ccc(Cn2nnnc2CN2CCOCC2)cc1 do in these assays?
VDR inh: -7%

Results for COc1ccc([C@H]2CC(=O)C=C(c3cccc(C#N)c3)C2)cc1 ?
VDR inh: -5%

Results for Cc1c(Br)c(C(F)(F)F)nn1CC(=O)NCCN1CCOCC1 ?
VDR inh: 5%

How did COc1ccc(N2Cc3cccc(C(=O)N4CCOCC4)c3C2=O)cc1 do in these assays?
VDR inh: -11%

How did Cc1ccc(S(=O)(=O)N(C)C2(C)CCS(=O)(=O)C2)cc1 (stereo not given) do in these assays?
VDR inh: 7%

Results for COCCNC(=O)CN(c1cc(C(F)(F)F)ccc1Cl)S(C)(=O)=O ?
VDR inh: 13%

Results for Cc1ccc(Sc2ncccc2[N+](=O)[O-])cc1 ?
VDR inh: -2%

What do the screens show for `NC(=O)c1cc[n+](CC2=C(C(=O)O)N3C(=O)[C@@H](NC(=O)[C@H](c4ccccc4)S(=O)(=O)[O-])[C@@H]3SC2)cc1`?
VDR inh: inconclusive

How did O=C1N/C(=C/c2ccc(N3CCOCC3)cc2)C(=O)N1Cc1ccc(F)cc1 do in these assays?
VDR inh: -6%

How did Cn1c2c(c(=O)n(C)c1=O)CN(CC1CCCO1)CN2 (stereo not given) do in these assays?
VDR inh: 9%

Results for [O-]C1=N/[N+](=C/c2ccc(Cl)c(Cl)c2)CC1 ?
VDR inh: -19%

What do the screens show for `Cc1ccc(C(CC(=O)N2CCNCC2)c2ccccc2)c(O)c1C` (stereo not given)?
VDR inh: 0%

What do the screens show for `COc1ccccc1-c1ccc(SCc2ccccc2F)nn1`?
VDR inh: inconclusive

Results for Cc1cccc(CCN(C(=O)Cc2cccs2)C(C(=O)NC2CCCCC2)c2cccnc2)c1 (stereo not given) ?
VDR inh: 17%

Results for O=C(O)c1cccnc1SCc1ccccc1Cl ?
VDR inh: -2%

What do the screens show for `Clc1ccc(-c2csc(N3CCC(c4ccccc4)C3)n2)cc1` (stereo not given)?
VDR inh: -4%

How did CCN(c1ccccc1)S(=O)(=O)c1cccc(C(=O)Nc2ccc(C)cn2)c1 do in these assays?
VDR inh: 14%

How did Cn1c(=O)c(-c2cccc(Cl)c2)c(O)c2ccccc21 do in these assays?
VDR inh: -24%

How did CSC1=N/C(=C\c2ccccc2C)C(=O)S1 do in these assays?
VDR inh: 31%[activator]

Results for CN(Cc1c(F)cccc1Cl)C(=O)c1cccc(S(=O)(=O)N2CCN(Cc3ccccc3)CC2)c1 ?
VDR inh: -6%

How did NCCCCC(N)C(=O)NC(Cc1ccc(O)cc1)C(=O)NC(CCCCN)C(=O)O (stereo not given) do in these assays?
VDR inh: 7%

How did COc1ccc(N=C2C(=O)N3CCCc4cccc2c43)cc1 do in these assays?
VDR inh: -5%

How did CCc1ccccc1Nc1sc(C(=O)c2cccc(OC)c2)c(N)c1S(=O)(=O)c1ccccc1 do in these assays?
VDR inh: -5%

What do the screens show for `Cn1c(=O)c2sccc2n2c(CCCC(=O)NCCc3ccccc3)nnc12`?
VDR inh: -3%

How did Cc1ccc(NC(=O)N2CCCN(Cc3ccc(F)cc3)C2)cc1C do in these assays?
VDR inh: 6%

How did O=S(=O)(NCCc1csc2nc(-c3ccc(F)cc3)nn12)c1ccc(Oc2ccccc2)cc1 do in these assays?
VDR inh: 9%

What do the screens show for `COc1ccc(C(=O)NC(=S)Nc2ccc3c4c(cccc24)CC3)cc1OC`?
VDR inh: -10%

Results for CCOC(=O)C(CC)(CC)C(=O)/C=C/c1ccc(OC)cc1 ?
VDR inh: -12%

What do the screens show for `Cn1cc(Br)c(C(=O)Nc2sc3c(c2C(N)=O)CCCC3)n1`?
VDR inh: 14%

What do the screens show for `CCN(CCn1cccn1)Cc1nc(-c2ccc(C(=O)OC)cc2)no1`?
VDR inh: 3%

Results for Cc1nc(N)sc1C(=O)OCC(C)C ?
VDR inh: -3%

What do the screens show for `CC(=O)Nc1sc(C)c(C)c1C(=O)OCC(=O)N(CCC#N)c1cc(C)cc(C)c1`?
VDR inh: 2%

Results for CC(=O)c1cccc(NC(=O)Cn2c(SCC(=O)Nc3ccc(F)cc3)nc3ccccc32)c1 ?
VDR inh: 4%

Results for Clc1ccc(SCc2cc(-c3ccccc3)no2)cc1 ?
VDR inh: 5%

What do the screens show for `O=C(OCC(=O)N1CCN(C(=O)c2ccco2)CC1)c1cccc(O)c1`?
VDR inh: -14%

The list is partial; the hit share may differ from the screen's.
